2A firefly: Primary qHTS Assay for Foot and Mouth Disease Virus Antivirals against NCGC Sytravon and CBC Compound Libraries: Firefly Luciferase Signal | HEK cells with a luciferase reporter of 2A StopGo recoding | Potency, µM (titrated, usually from 57.5 µM), inactives show at the top dose signal change, negative = less light | 0.23% of 120,000 active; active = well fitted falling curve with a large enough effect; inconclusive = small, poorly fitted or top-dose-only effect; inactive = no such curve, though single readings can be large or run the other way; also: nearly all actives have a fitted effect of over 60% in size; overnight with compound
2A Renilla: Primary qHTS Assay for Foot and Mouth Disease Virus Antivirals against NCGC Sytravon and CBC Compound Libraries: Renilla Luciferase Signal. HEK cells with a luciferase reporter of 2A StopGo recoding. Potency, µM (top dose mostly 57.5 µM), for inactives: top-dose signal change, negative = less light. 0.32% of 120,000 active. AID 1745857, 2022; active means well fitted falling curve with a large enough effect; inconclusive means small, poorly fitted or top-dose-only effect; inactive means no such curve, though single readings can be large or run the other way; also: nearly all actives have a fitted effect of over 55% in size; overnight with compound
* = called active by the depositor; ? = inconclusive; [ ] = another dose, or the depositor's remark. % is scaled to controls: 0 for no effect and ±100 for the full control effect; potency is read from the fitted curve at half-maximal effect.

Results follow in this order: 2A firefly, 2A Renilla
COC(=O)c1sc2ccccc2c1S(=O)(=O)N1CCN(c2ccc(C(C)=O)cc2)CC1
→ 6.5%, 45.0%[activator]
Cc1ccc(OC(=O)CSc2nnc(-c3cccs3)o2)c(C)c1
→ -12.1%, 210.9%[activator]
Cc1nc2ccc(S(=O)(=O)NCC(=O)Nc3ccc(F)cc3F)cc2s1
→ 0.0%, 0.4%
O=C(O)/C=C/C(=O)c1ccccc1
→ 19.2%, -15.1%
CCOC(=O)N1CCc2c(sc(NCc3cccs3)c2C(=O)Nc2cc(Cl)ccc2OC)C1
→ -16.7%, 20.6%
CC(C)OC(=O)c1cccc(NC(=O)Cn2nnc3sc4c(c3c2=O)CCCC4)c1
→ -1.1%, -5.4%
CC(C)(C)c1ccc(-c2nnc(SCC(=O)N3CCCC3)n2C2CCCC2)cc1
→ ?, ?
CCOc1ccc(NC(=O)NCc2nc(-c3ccc(C)cc3)oc2C)cc1
→ 0.6%, -10.3%
Cc1ccc2nc(/C(C#N)=C/c3ccccc3F)[nH]c2c1
→ 114.1%[activator], 143.4%[activator]
COc1ccc2[nH]cc(S(=O)(=O)c3ccc(C)c(C)c3)c(=O)c2c1
→ -14.3%, 32.6%[activator]
CC1(C)CC(=O)C2=C(C1)OC1=C(C(=O)CC(C)(C)C1)C2c1ccc(-c2ccccc2C(=O)O)o1
→ 0.0%, 13.8%
O=C(CSc1nnc2ccc(-c3ccncc3)nn12)N1CCCc2ccccc21
→ 8.3%, 0.1%
COc1cccc2c1OC1(CCN(C(C)=O)CC1)N1N=C(c3ccccc3OC(F)F)CC21 (stereo not drawn)
→ 178.1%[activator], 27.8%
O=C(Nc1cccnc1)c1ccc(SC(F)(F)F)cc1
→ 111.9%[activator], -25.4%
Cc1nc2c(C(=O)NCCc3ccccc3)cnn2c(C)c1Cc1c(F)cccc1Cl
→ -15.8%, 4.0%
Cc1cc(C)cc(OCC(=O)NC(Cc2c[nH]c3ccccc23)C(=O)O)c1 (stereo not drawn)
→ 16.9%, -13.5%
CCN(Cc1ccccc1)C(=O)C1CCN(c2ncnc3c2nc2n3CCCCC2)CC1
→ -9.4%, -2.8%
Cc1ccc(C)c(N2C(=O)N(Cc3c(F)cccc3Cl)c3ccccc3S2(=O)=O)c1
→ -11.6%, -1.9%
CCn1nc(C)c2c(-c3ccccc3)cc(=O)n(C(C)C(=O)NCCc3ccc(OC)c(OC)c3)c21 (stereo not drawn)
→ -8.5%, 12.4%
O=C(COc1ccc2ccccc2c1)Nc1nc2n(n1)C(c1ccc(Cl)cc1)CC(=O)N2 (stereo not drawn)
→ -7.5%, -16.8%
O=C(Nc1ccccc1)C(c1ccccc1)N1CCN(C(=O)C2CC2)CC1 (stereo not drawn)
→ 7.1%, -6.1%
Cc1ccc(S(=O)(=O)CCC(=O)Nc2ccc(OC(F)(F)F)cc2)cc1
→ -24.5%, -15.3%
N#Cc1cccc(C(=O)Oc2ccccc2C(F)(F)F)c1
→ 7.3%, 3.9%
COCCCNC(=O)c1cc(-c2ccncc2)nc2ccc(S(=O)(=O)N3CCOCC3)cc12
→ 23.1%, 21.0%
COC(=O)c1ccc(COC(=O)Cc2ccc(Cl)cc2Cl)cc1
→ 49.5%[activator], -6.1%
COc1ccc(C)cc1NC(=O)C1CCCN(S(=O)(=O)c2ccc3c(c2)CCCN3C(C)=O)C1 (stereo not drawn)
→ -17.0%, 36.4%[activator]
N#Cc1c(N2CCN(C(=O)C(=O)NCCc3ccccc3)CC2)nc(-c2ccco2)c2c1CCCC2
→ -6.0%, 112.7%[activator]
CC(=O)NCCNC(=O)CSc1nc(C2CC2)nc2ccccc12
→ 18.9%, -25.8%
CNC(=S)NNC(=O)C(Sc1ccccc1)c1ccccc1 (stereo not drawn)
→ 0.7%, 2.6%
Cc1c(C(=O)OCCOc2c(Cl)cc(Cl)cc2Cl)sc(=S)n1C
→ 2.1%, 1.5%
Cc1ccc(OC(C)C(=O)N2CCN(Cc3nc(N)c4ccccc4n3)CC2)cc1 (stereo not drawn)
→ 46.1%, 0.0%
CCNC(=O)CN(CC)C(=O)c1cc2ccccc2oc1=O
→ 10.5%, 1.2%
CSc1ccccc1C(=O)NC(C)(C)C
→ -5.2%, -4.2%
CCc1ccccc1NS(=O)(=O)c1cc(Br)cc2c1N(C(=O)C1CC1)CC2
→ ?, -2.7%
O=C(Nc1cc(=O)[nH]c2nc(C(F)(F)F)nn12)c1ccccc1Cl
→ 16.6%, 49.4%[activator]
COCCCNC(=O)c1cn(CC(C)C)c(=O)c2c1c1ccccc1n2C
→ 18.9%, 7.2%
COc1ccc(Cn2c(=O)c3oc4ccccc4c3n(Cc3cccc(F)c3)c2=O)cc1
→ -19.9%, -10.0%
O=C(COC(=O)c1cc(=O)c2ccccc2o1)Nc1ccc(Cl)cc1
→ 20.2%, -9.6%
CN(C)S(=O)(=O)c1ccc(-c2nc(C#N)c(NCc3ccc(F)cc3)o2)cc1
→ -2.7%, -1.6%
O=C(CCCSc1nc2ccccc2s1)Nc1ccc(F)cc1
→ -22.6%, -14.2%
Cc1nc(-c2ccc(S(=O)(=O)Nc3ccc(OC(F)(F)F)cc3)cc2)co1
→ -12.5%, -16.1%
CCc1ccc(NC(=O)CN(Cc2ccccc2)S(=O)(=O)c2ccc3nc(C)sc3c2)cc1
→ -9.6%, 22.6%
O=C(NCCc1cccc(Cl)c1)Nc1ccc(Cl)cc1F
→ 53.0%[activator], -19.8%
COc1ccc(NC(=O)c2ccc(-c3ccc(S(=O)(=O)N4CCCC4)cc3)cc2)cc1Cl
→ 17.2%, 9.2%
CN(CC(=O)Nc1cccc(F)c1)CC(=O)N(C)C1(C#N)CCCCC1
→ 12.0%, 7.3%
CC(C)NC(=O)Cc1ccc(-n2c(=O)c3ccccc3n(Cc3ccccc3)c2=O)cc1
→ -11.9%, -10.3%
Fc1ccc(CNc2nc(-c3ccc(Cl)cc3)cc(C(F)(F)F)n2)cc1
→ -6.2%, -13.0%
CCCn1c(=O)n(CC(=O)Nc2c(C)cccc2C)c(=O)c2c1nc(C)n2CCOC
→ -6.9%, -0.5%
COc1ccc2c(c1)c1c(c(=O)n(-c3ccccc3C)c(=O)n1CC(N)=O)n2C
→ -10.5%, -6.7%
COc1ccc(/C=C/C(=O)Nc2ccc(Cl)c(Cl)c2)cc1
→ -5.6%, ?
CC(C)CCn1c(CN2CCN(c3ccccc3F)CC2)nc2c1c(=O)n(C)c(=O)n2C
→ -4.9%, 0.4%
COc1ccc(Br)cc1/C=C(\C#N)c1nc2ccccc2[nH]1
→ 0.0%, ?
Cc1ccc(C)c(OCCCn2c(-c3ccc(Cl)cc3)nc3ccccc3c2=O)c1
→ -14.1%, -7.6%
O=C(CN1CCN(c2cccc(Cl)c2)CC1)NC1CCS(=O)(=O)C1 (stereo not drawn)
→ 0.6%, -14.1%
Clc1cc(Cl)c(N/N=C/c2cccc(Cl)c2Cl)c(Cl)c1
→ 22.6%, 2.1%
COc1cc(C(=O)NCCS(=O)(=O)N2CCN(c3ccccc3)CC2)cc(OC)c1OC
→ -7.0%, -6.3%
COc1ccc(-c2cn3c(n2)sc2cc(C(=O)Nc4cc(Cl)ccc4C)ccc23)cc1
→ 99.2%[activator], 10.1%
CCCSc1nc(=O)c2c(n1C)NC(=O)CC2c1ccc(C)cc1C (stereo not drawn)
→ 7.6%, -0.6%
COC(=O)CCOc1ccc(S(=O)(=O)Nc2ccc(OC)c(Cl)c2)cc1
→ 21.1%, 163.4%[activator]
Cc1ccc(-c2cc(C(=O)N3CCNC(=O)C3)c3ccccc3n2)cc1
→ 75.7%[activator], 53.2%[activator]

The last 2 compounds of the part before are carried over, then new ones follow:
Results follow in this order: 2A firefly, 2A Renilla
COC(=O)CCOc1ccc(S(=O)(=O)Nc2ccc(OC)c(Cl)c2)cc1
→ 21.1%, 163.4%[activator]
Cc1ccc(-c2cc(C(=O)N3CCNC(=O)C3)c3ccccc3n2)cc1
→ 75.7%[activator], 53.2%[activator]
C=CC#CCCCc1ccc(OC(=O)c2ccc(C(=O)Oc3ccc(CCCC#CC=C)cc3C)cc2)c(C)c1
→ 16.0%, 21.5%
O=C(NCCC(c1ccccc1)c1ccccc1)c1n[nH]c(=O)c2ccccc12
→ -11.4%, -12.6%
CCOc1ccc(CN2C(=O)C(=O)c3cccc(C)c32)cc1OC
→ 17.1%, 5.5%
Cc1c(CC(=O)N2CCN(c3ccccc3)CC2)c(=O)oc2cc(O)ccc12
→ -7.3%, -6.8%
COCCN(CC(N)=O)S(=O)(=O)c1cccc(Cl)c1
→ -2.3%, -7.7%
N#Cc1nc(-c2ccc(F)cc2)oc1N1CCN(C(=O)c2ccccc2F)CC1
→ -1.7%, -1.5%
COc1ccccc1C1(CNC(=O)c2cccc(F)c2)CCOCC1
→ -4.2%, 2.0%
CC(C)COC(=O)c1nc2ccccc2nc1NCc1ccc2c(c1)OCO2
→ 93.6%[activator], 22.1%
COc1ccc(-c2nn3c(-c4ccc(C)cc4)nnc3c3ccccc23)cc1
→ 10.7%, -0.4%
CC(C)OCCCNC(=O)Cn1ccc2ccc(Cl)cc21
→ 5.8%, 22.1%
Cc1ccc2oc(=O)cc(CN3CCOCC3)c2c1
→ 0.0%, 27.7%
O=C(NC1C2CC3CC(C2)CC1C3)c1cccc2c(Br)cccc12 (stereo not drawn)
→ -1.8%, 5.3%
CCCCCCCc1c(C(=O)O)c2ccccc2c2ccccc12
→ 0.9%, 0.1%
Cc1ccc(N2CCN(C(=O)c3noc4c3COc3ccc(C)cc3-4)CC2)c(C)c1
→ -18.2%, -18.7%
CCCC1NC(=O)N(Cc2cc(F)cc3cccnc23)C1=O (stereo not drawn)
→ -2.4%, 0.7%
Cc1cccc(-c2nc3c(c(SCc4ccccc4Cl)n2)Cc2c(CO)cnc(C)c2O3)c1
→ -17.7%, -22.1%
CN1CCc2nc3sc(C(=O)c4ccc(Cl)cc4)c(N)c3cc2C1
→ 1.7%, -2.5%
COCCNC(=O)CCc1c(C)nc2c(-c3ccc(F)cc3)c(C)nn2c1C
→ -7.2%, -12.4%
COc1cc2nc(SCc3ccc(Cl)cc3)n3nc(CCn4nc(C)cc4C)nc3c2cc1OC
→ -11.6%, -13.7%
CCOC(=O)c1cc(-c2ccc(F)cc2)n(CCC(=O)NCCc2ccc(C)cc2)c1C
→ 18.0%, 16.4%
Cc1cccc2[nH]c(CO)nc12
→ 18.2%, 11.1%
O=C1CC(Cc2ccccc2)C(=O)N1c1ccc2ccccc2n1 (stereo not drawn)
→ 17.0%, -10.2%
CC(=O)NCc1ccc(-c2csc(-c3ccccc3C)n2)o1
→ 169.8%[activator], -4.5%
Cc1ccc(OCCSc2nc3ccc(NC(=O)COc4ccc(F)cc4)cc3s2)cc1
→ -13.4%, -17.3%
N#Cc1ccccc1N1CCN(c2ccccc2)CC1
→ 183.2%[activator], 8.9%
CCOc1cc(/C=C/C(=O)c2ccc(F)cc2)cc(Br)c1OC
→ 6.9%, 5.2%
CC(CO)(CO)NC(=O)COc1cc(O)c2c(=O)cc(-c3ccccc3)oc2c1
→ 2.0%, -5.4%
c1ccc2sc(C3CCN(Cc4nc(C5CC5)no4)CC3)nc2c1
→ 10.2%, ?
O=C(CSc1n[nH]c(-c2ccccc2Cl)n1)NCCc1ccccc1
→ -16.8%, -16.9%
NNc1cc(Cl)c(Cl)cc1[N+](=O)[O-]
→ 3.8%, -17.7%

Four entries from above, reformatted:
O=C(Nc1cc(=O)[nH]c2nc(C(F)(F)F)nn12)c1ccccc1Cl
  2A firefly: 16.6%	2A Renilla: 49.4%[activator]

COCCCNC(=O)c1cn(CC(C)C)c(=O)c2c1c1ccccc1n2C
  2A firefly: 18.9%	2A Renilla: 7.2%

COc1ccc(Cn2c(=O)c3oc4ccccc4c3n(Cc3cccc(F)c3)c2=O)cc1
  2A firefly: -19.9%	2A Renilla: -10.0%

O=C(COC(=O)c1cc(=O)c2ccccc2o1)Nc1ccc(Cl)cc1
  2A firefly: 20.2%	2A Renilla: -9.6%

Continuation.
Results follow in this order: 2A firefly, 2A Renilla
CC(=O)NC(CCS(C)(=O)=O)C(=O)Nc1ccc(F)cc1 (stereo not drawn)
→ -10.9%, -8.8%
CN(Cc1cccc(F)c1)S(=O)(=O)c1cccc2nsnc12
→ -1.0%, 54.0%[activator]
CCOC(=O)c1noc2ncnc(N3CCC(C)CC3)c12
→ -17.9%, -4.9%
CCCC1=Nc2cc(C(=O)NC3CCCC3)ccc2Sc2ccc(C)cc21
→ 0.5%, 1.2%
O=C(c1ccc([N+](=O)[O-])cc1)N1c2ncnn2C2(CCCCC2)[C@@H]2CCCC[C@@H]21
→ -11.6%, -11.5%
COCCn1c(N2CCN(C)CC2)nc2c1c(=O)n(C)c(=O)n2C
→ 0.5%, -8.6%
CC1CCN(S(=O)(=O)NCc2ccnc(OCc3ccccc3)c2)CC1
→ 13.2%, 0.0%
CNC(=O)NC(=O)C(C)N(C)CCCCc1ccccc1 (stereo not drawn)
→ -17.4%, -7.0%
CC(NC(=O)CCc1c[nH]c2ccccc12)c1cccs1 (stereo not drawn)
→ 0.0%, 99.8%[activator]
CCOCCOC(=O)COc1ccc2c(=O)c(Oc3ccc(OC)cc3)coc2c1
→ 9.3%, 16.7%
COc1cccc(CNC(=O)C2CCC(CNS(=O)(=O)c3ccc(Br)s3)CC2)c1 (stereo not drawn)
→ -15.6%, 30.2%[activator]
O=C(NCc1ccccc1)c1ccc(CSc2nc3cccnc3n2Cc2cccc(F)c2)cc1
→ -19.8%, 36.3%[activator]
CC(C)c1cc(C(=O)N(C)c2ccccc2)c2ccccc2n1
→ -5.5%, 6.4%

Source: PubChem
